Screening results deposited in PubChem by ICCB-Longwood Screening Facility, Harvard Medical School.
GIV-Gai inh – blocks GIV peptide binding to rat Galpha-i3. P08753. Galpha-i3/FITC-GIV peptide fluorescence polarization, 90 min; stronger effect = lower value; scaled: aluminum fluoride 0%, vehicle 100%. percent of control (FP), % (no concentration beside the values). 210,000 tested, 0.42% active. AID 1224905;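 active = replicate mean at 85% of control or lower, very high polarization wells dropped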;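 also: wells of about 15 µL received 100 nL stock; the first replicate is given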
Target sequence (P08753 whole entry, looked up): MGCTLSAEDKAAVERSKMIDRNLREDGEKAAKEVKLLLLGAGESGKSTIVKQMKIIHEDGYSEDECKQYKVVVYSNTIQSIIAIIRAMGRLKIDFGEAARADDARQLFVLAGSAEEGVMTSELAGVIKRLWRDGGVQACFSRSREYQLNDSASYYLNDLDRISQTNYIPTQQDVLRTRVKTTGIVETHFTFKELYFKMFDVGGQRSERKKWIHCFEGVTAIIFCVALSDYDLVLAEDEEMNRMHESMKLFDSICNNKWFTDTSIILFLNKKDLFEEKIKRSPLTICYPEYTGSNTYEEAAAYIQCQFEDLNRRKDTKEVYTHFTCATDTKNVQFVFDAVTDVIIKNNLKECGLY
HCMV UL50-53 inh – cytomegalovirus nuclear egress complex inhibition | HTRF UL50-UL53 interaction, normalized percent inhibition | inhibition, % (no concentration beside the values) | 190,000 tested, 0.15% active | AID 1918969;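 active = both replicates at 50% or more, plus weaker picks with an unusually low signal ratio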;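 also: stock transfer was 100 nL into about 20 µL; 0% = negative control wells and 100% = wells with untagged competitor protein; inactives centre near -12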
Sa growth 42C – blocks Staphylococcus aureus growth; S. aureus RN4220 growth, OD600, 20 h, 42 °C; stronger effect = lower value; relative growth, % (no concentration beside the values); 170,000 tested, 0.53% active; AID 720641;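 active = growth at 42 °C up to 50% and 20 or more points under that at 30 °C, or under 10% at both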;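 also: 300 nL library stock went into each well; scaled to the means of positive and negative controls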
Sa growth 42C second temp – second read-out of Sa growth 42C, no call of its own (marks repeat the call); relative growth, %; measured here: growth at 30 °C;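 optical density after 20 h as mean of two plates; 100% = untreated growth and lower means inhibition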
Active calls of the source: *; · = not tested or not shown; & = joins results of further samples.

SMILES	GIV-Gai inh	HCMV UL50-53 inh	Sa growth 42C	Sa growth 42C second temp
COc1ccc(CNC(=O)CC(C)n2nc(C)cc2C)cc1 (configuration not stated)	100	·	97	89
COc1ccccc1CNc1ncnc2c1c(-c1ccccc1)cn2-c1ccc(Br)cc1	101	·	93	83
Cc1c(C)c(C)c(C#CCO)c(C)c1C	103	-26	3.2*	46*
CCC(=O)N1CCc2cc(Br)c(S(=O)(=O)NCCc3ccc(S(N)(=O)=O)cc3)cc21	103	12	·	·
CCOc1ccc(-n2c(=O)c3sc4ccccc4c3n(Cc3cccc(C)c3)c2=O)cc1	101	17	98	97
O=C(NCc1ccccn1)c1ccc(CN2C(=O)CCn3nccc32)cc1	103	-2	·	·
COc1ccc(CCNC(=O)Cn2c(Cc3ccccc3)nc3sc4c(c3c2=O)CCCC4)cc1OC	97	-21	·	·
CC(=O)Oc1cc(C)c2c(=O)c(-c3csc(C)n3)coc2c1	·	-13	72	88
O=C(Nc1ccccc1Cl)c1cc2ccccc2oc1=O	100	·	100	87
COc1ccc(OCC(O)Cn2c(Cc3ccccc3Cl)nc3ccccc32)cc1 (configuration not stated)	104	-20	·	·
CCC1(C)Cc2nc3nc(SCC(=O)OC)n(Cc4ccccc4)c(=O)c3cc2CO1 (configuration not stated)	100	-8	88	80
CCCNC(=O)c1ccc2c(=O)n(CC3CCCO3)c(SCC(=O)c3ccc(F)cc3)nc2c1 (configuration not stated)	98	4	·	·
CC1CCCCN1C(=O)c1ccc(C(=O)c2ccccc2)cc1 (configuration not stated)	·	-23	85	92
Cc1ccc(S(=O)(=O)N2CCCC2C(=O)Nc2ccc(Br)cc2)cc1 (configuration not stated)	108&103	11&0	105	94
Cc1cccc(Cn2c(SCc3ccc(F)cc3)nc3cccnc32)c1	101	-5	·	·

Overlap with the part before: four compounds, then new ones.
SMILES	GIV-Gai inh	HCMV UL50-53 inh	Sa growth 42C	Sa growth 42C second temp
CCCNC(=O)c1ccc2c(=O)n(CC3CCCO3)c(SCC(=O)c3ccc(F)cc3)nc2c1 (configuration not stated)	98	4	·	·
CC1CCCCN1C(=O)c1ccc(C(=O)c2ccccc2)cc1 (configuration not stated)	·	-23	85	92
Cc1ccc(S(=O)(=O)N2CCCC2C(=O)Nc2ccc(Br)cc2)cc1 (configuration not stated)	108&103	11&0	105	94
Cc1cccc(Cn2c(SCc3ccc(F)cc3)nc3cccnc32)c1	101	-5	·	·
N#Cc1c(NCc2ccccc2)ncc2c1Nc1ccccc1C2	73*	-20	112	86
COc1c(C)cnc(CSc2ncnc3nc[nH]c23)c1C	100	-22	·	·
Cc1ccc2c(c1)c1c(c(=O)n(-c3cccc(Cl)c3)c(=O)n1CC(=O)N1CCCC1)n2C	106&104	-21	88	88
CC1CCN(C(=O)/C(=C/C=C\c2ccccc2)NC(=O)c2ccccc2)CC1	·	-5	68	64
C=Cc1ccc(CSc2nnc3n(Cc4ccccc4)c(=O)c4ccccc4n23)cc1	102	-33	·	·
COc1ccc(C(N)=O)cc1OC(C)C	100	10	114	103
CCC(=O)Oc1c(Sc2ccc(C)cc2)c(C)nn1C(C)(C)C	99	·	93	87
O=C(Cn1ccn2nc(-c3ccccc3)cc2c1=O)N1CCCc2ccccc21	97	3	·	·
CCOc1nc(NC(=O)NS(=O)(=O)Oc2ccccc2Cl)nc(-c2ccccc2)n1	105	-9	97	93
COC(=O)c1c(C)[nH]c(C(=O)N2CCCC(C(=O)N3CCCCC3)C2)c1C (configuration not stated)	99	-22	·	·
Nc1nc2c(nc(N3CCCCC3)n2[C@@H]2O[C@H](CO)[C@@H](O)[C@H]2O)c(=O)[nH]1	97	-11	84	91
Cc1ccc(/C=C2/Sc3ccccc3NC2=O)cc1	101	·	90	95
Clc1cccc(N2CCN(c3nc4ccccc4c4nc(-c5cccnc5)nn34)CC2)c1	102	-19	103	89
COc1ccc(-c2noc(CSc3nc(N)cc(=O)[nH]3)n2)c(OC)c1	97	-16	·	·
CCOC(=O)c1c(C)cc2ccccn12	·	7	109	96

Four entries from above, field by field.
C=Cc1ccc(CSc2nnc3n(Cc4ccccc4)c(=O)c4ccccc4n23)cc1
- GIV-Gai inh = 102
- HCMV UL50-53 inh = -33
- Sa growth 42C = ·
- Sa growth 42C second temp = ·

CCOc1ccc(-n2c(=O)c3sc4ccccc4c3n(Cc3cccc(C)c3)c2=O)cc1
- GIV-Gai inh = 101
- HCMV UL50-53 inh = 17
- Sa growth 42C = 98
- Sa growth 42C second temp = 97

CCC(=O)N1CCc2cc(Br)c(S(=O)(=O)NCCc3ccc(S(N)(=O)=O)cc3)cc21
- GIV-Gai inh = 103
- HCMV UL50-53 inh = 12
- Sa growth 42C = ·
- Sa growth 42C second temp = ·

O=C(NCc1ccccn1)c1ccc(CN2C(=O)CCn3nccc32)cc1
- GIV-Gai inh = 103
- HCMV UL50-53 inh = -2
- Sa growth 42C = ·
- Sa growth 42C second temp = ·

More records
SMILES	GIV-Gai inh	HCMV UL50-53 inh	Sa growth 42C	Sa growth 42C second temp
Cc1cc(NC(=O)Cc2ccccc2)no1	101	-14	93	67
Cc1ccc(Cl)cc1-n1ncc2c(NCCc3ccccc3)ncnc21	103	·	95	48
CCOc1ccccc1/C=C/C(=O)NCC(=O)N1CCC(N(C)C2CCCC2)CC1	101	-38	100	90
CN(c1ccc(C(=O)NCC2CCCO2)cc1)S(C)(=O)=O (configuration not stated)	103	-4	98	88
CCOC(=O)c1[nH]c2c(c1Cc1ccccc1OC)C(=O)CC(c1ccccc1)C2 (configuration not stated)	107	-2	100	101
CC1(C)C=Cc2ccc(OCC(=O)Nc3ccccc3)cc2O1	98	33	112	65
COc1ccc2cc3c(NC(=O)c4cnccn4)n[nH]c3nc2c1	96	-8	108	97
CC(CN1CCCCC1)NC(=O)c1cccs1 (configuration not stated)	111	-4	99	108
CSc1nc2sc3c(c2c(=O)n1-c1ccc(C)c(Cl)c1)CCN(C(C)=O)C3	97	-12	99	81
O=C(Nc1ccc(-n2cncn2)cc1)c1ccccc1N1CCOCC1	101	-40	94	89
Cc1ccc(-n2c(N)c(C#N)c3nc4ccccc4nc32)cc1C	97	·	95	77
O=C(CN1C(=O)C2(SCC(=O)N2c2ccc(F)cc2)c2ccccc21)NCCc1ccccc1 (configuration not stated)	96	·	115	96
Cc1[nH]c(C)c(S(=O)(=O)NC(C)(C)C)c1C(=O)N1CCCC1	98	-5	97	96
CCOC(=O)Cn1nc(-c2ccccc2)c2cnc3ccccc3c21	108	3	115	98
COc1ccc2c(c1)c1c(c(=O)n(-c3ccc(C)cc3)c(=O)n1CC(=O)N1CCCC1)n2C	109	·	112	89
O=C1SC(c2ccccc2)=N/C1=C/c1ccco1	101	·	97	86
Cc1cc(C)c2c(=O)n(CC(=O)NC3CCCC3)sc2n1	108	2	114	97
Clc1ccc(Cc2nc3nc4c(c(N5CCN(c6ccccn6)CC5)n3n2)CCC4)cc1	101	-4	·	·
Cn1nnnc1SCC(=O)NC(=O)c1ccccc1Br	·	-7	106	102
CCc1cccc(NC(=O)CSc2nc3ccccc3nc2N2CCCCC2)c1	104	-7	102	96
COc1ccccc1CNc1ccc2c(c1)ncn2C(C)C	98	-9	119	78
COc1cc(C(=O)Nc2sc(C(=O)N3CCOCC3)c(C)c2C#N)cc(OC)c1OC	106	-13	108	96
CCc1ccc(S(=O)(=O)N2CCN(c3ccc(Cl)c(Cl)c3)CC2)cc1	110	2	93	108
COc1ccc(-c2nnc(SCc3nc(N)nc(Nc4ccccc4C)n3)o2)cc1OC	·	-18	81	92
Cc1cc(C)c2c(=O)cc(CSCC(=O)Nc3ccccc3Cl)[nH]c2c1	104	·	82	84
Cc1cc(C)cc(NC(=O)COC(=O)c2ccc(F)cc2F)c1	·	-24	111	88
COc1ccccc1NC(=O)c1oc2ccccc2c1NC(=O)Cc1cccc(C)c1	100	·	107	79
O=C(Cn1c(=O)n(CC(=O)NC2CCCCC2)c2ccccc21)NC1CCCCC1	94	-14	90	90
CCOc1ccc2[nH]cc(C(=O)O)c(=O)c2c1	·	12	119	85
CCn1c(=O)c(-c2noc(C(=O)NC3CCCCC3)n2)nn(-c2ccccc2)c1=O	101	-102	·	·
CN(CCOc1ccccc1)CC(=O)Nc1cccc(C#N)c1	·	11	105	96
COc1ccc(OCc2nc(CCN(C)S(=O)(=O)c3ccc(Br)cc3)no2)cc1	99	-8	·	·
CC(=O)Nc1cccc(N2C(=O)C=CC2=O)c1	106	-6	93	80
CC(=O)Nc1ccc(CCc2nc3ccccc3[nH]2)cc1	102	-7	94	80
Cc1ccc(NC(=O)CSc2nc3c(oc4ccccc43)c(=O)n2Cc2ccc(F)cc2)c(C)c1	109	·	91	91
CS(=O)(=O)Nc1ccc(C2=NN(C(=O)CCCC(=O)O)C(c3cccc(F)c3)C2)cc1 (configuration not stated)	102	-74	·	·
CC(=O)Nc1nc(-c2cccs2)nc2c1c(=O)oc1ccccc12	101	-5	102	82
O=C(Nc1ccccc1Br)c1cc(CN2CCCC2)on1	104	·	84	93
COCCCN1C(=O)c2[nH]nc(-c3ccccc3O)c2C1c1ccc(OCc2ccccc2)cc1 (configuration not stated)	102	-3	54	46
CCOC(=O)c1c(C)oc2c1c(C=NCCCN1CCOCC1)c(O)c1ccccc12	·	-30	96	94
Cc1ccc(C)c(Cn2c(=O)n(CCCCC(=O)NCc3ccccc3Cl)c(=O)c3ccccc32)c1	105	-5	102	106
Cc1c(Cl)cccc1NC(=O)Cn1c(CCC(=O)O)ccc1-c1cccs1	102	-6	101	89
Nc1cc(Nc2ccccc2)ccn1	101	-23	95	79
CC(C)(C)c1cc2oc3c(c2c(C=NCc2ccncc2)c1O)CCCC3	104	·	116	86
CC(C)C(NS(=O)(=O)c1ccccc1)C(=O)Nc1ccccc1 (configuration not stated)	101	-11	92	99
COc1cc(OC)c(NC(=O)C(C)Oc2cc(C(F)(F)F)c3c(C)nn(C)c3n2)cc1Cl (configuration not stated)	106	-23	·	·
COc1ccc(C2C(C(=O)N3CCN(c4ccc(OC)cc4)CC3)c3ccccc3C(=O)N2C)cc1 (configuration not stated)	103	-3	111	96
COc1ccc(CCNC(=O)C(=O)NCC(c2ccco2)S(=O)(=O)c2cccs2)cc1OC (configuration not stated)	97	·	108	89
CCOc1ccc(C2c3cc(OCC)c(OCC)cc3CC(=O)N2c2ccc(C(=O)O)cc2)cc1OCC (configuration not stated)	106	-24	98	96
CC1CCCCN1C(=O)CSc1nc2ccccc2[nH]1 (configuration not stated)	·	-24	93	97
Cc1cc(C(=O)C(C)OC(=O)CN2CCSC2=O)c(C)n1-c1ccc(Cl)cc1 (configuration not stated)	·	-20	121	88
COC(=O)c1cc(C)nc2c1c(=O)n(C)c(=O)n2C	108&102	-22&-31	88	80
O=C(Nc1ccccc1C(=O)NCCc1ccccc1)c1ccno1	·	1	103	83
CCCn1c(=O)c2ccccc2n2c(=O)n(CC(=O)c3ccc(F)cc3)nc12	100	-24	·	·
Cc1cc(C)nc(NC(c2cccnc2)c2cc(C)sc2NC(=O)c2ccccc2)n1 (configuration not stated)	108	-5	·	·
CCCCN1CC(c2nc3ccccc3n2CCCCOc2ccc(C)cc2C)CC1=O (configuration not stated)	103	-23	108	87
CNC(=O)c1ccc(C(C)(C)C)cc1	·	-14	111	81
O=C(NCC1CCCO1)c1ccc(F)c(F)c1 (configuration not stated)	·	3	92	100
CC1Cc2cc(C(=O)NCC(c3ccco3)N3CCCC3)ccc2N1S(C)(=O)=O (configuration not stated)	·	-9	73	90
Cc1nc(-c2cccs2)c(CC(=O)NC2=NCCS2)s1	100	-16	·	·
Carrying on:
SMILES	GIV-Gai inh	HCMV UL50-53 inh	Sa growth 42C	Sa growth 42C second temp
CSc1sc(C(N)=O)cc1C#N	106	-3	106	99
Cc1cc(CNC(=O)COC(=O)C2CC3CCCC(C2)C3=O)cc(C)c1O (configuration not stated)	·	-7	100	93
OCCc1ccc(-c2ccc(Cl)cc2)o1	106	-25	81	43
O=C(CCC(=O)c1ccccc1)Nc1cccnc1	102	-1	108	85
CC(=O)N1CCSc2cc(S(=O)(=O)Nc3cccc(C)c3)ccc21	100	·	83	85
O=C(NCCCN1CCC(N2CCCCC2)CC1)C1CCN(c2ccc3nncn3n2)CC1	96	-10	·	·
COc1ccc(Nc2cc(C(=O)NC3CCCCC3)c3ccccc3n2)c(OC)c1	106	·	81	91
CSc1cccc(NC(=O)c2ccc3c(c2)CCCN3S(C)(=O)=O)c1	105	-6	107	89
O=C(N/N=C/c1ccc(-c2ccc(S(=O)(=O)Nc3ncccn3)cc2)o1)C12CC3CC(CC(C3)C1)C2	·	-56	105	91
Cc1cc(C)c2nc(N3CCCN(C(=O)c4ccco4)CC3)c(C#N)cc2c1	106	-40	116	38
Cc1cccc(NC(=O)CCN2CCN(c3ccccc3F)CC2)c1	97	16	92	102
O=C(Cn1cnc2sccc2c1=O)NC(=O)NC1CCCC1	·	-9	97	97
OCCn1c(-c2ccc(-c3ccccc3)cc2)csc1=Nc1ccccc1	·	-2	88	76
O=C(O)CN1C(=O)/C(=c2/sc3nc4ccccc4n3c2=O)c2cc(Br)ccc21	99	·	104	94
O=C(O)c1ccc(Cn2cnc3cccnc32)cc1	99	·	91	86
CCC(=O)N(CCC(c1ccccc1)c1ccco1)Cc1ccc(N(C)C)cc1 (configuration not stated)	101	-12	81	54
COc1ccc(N2CC(C(=O)NCCS(=O)(=O)N3CCN(c4ccccc4)CC3)CC2=O)cc1 (configuration not stated)	101	·	92	93
